Assay outcomes deposited in PubChem BioAssay by Broad Institute.
STAT3 binder – binders of human STAT3; Small molecule microarray, His-STAT3 binding, anti-His fluorescence; hit rate 0.2% among 17,000; P40763; calls only; AID 624138;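 active = compounds whose four printed spots each show fluorescence over background unusually high for their array block, chance value under 7%; compounds were printed on slides so no solution concentration is given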;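 note: about 2 pmol printed per array spot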
ID4 SMM – binders of human ID4 protein; P47928; small molecule microarray, Flag-ID4 binding, fluorescence F/B; calls only; hit rate 1.2% among 31,000; AID 624137;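 active = spot signal over background at p below 0.07 in all four prints; compounds were printed on slides so no solution concentration is given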;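 note: a binder raises fluorescence above local background on the spot; about 2 pmol printed per array spot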
Target sequence (P47928 whole entry, looked up): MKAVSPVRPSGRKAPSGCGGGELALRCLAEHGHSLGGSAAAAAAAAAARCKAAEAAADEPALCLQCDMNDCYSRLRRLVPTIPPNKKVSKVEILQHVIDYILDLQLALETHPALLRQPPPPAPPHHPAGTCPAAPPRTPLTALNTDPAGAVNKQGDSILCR
p53 mut binder – binds human mutant p53 on microarray | small molecule microarray binding, anti-GST fluorescence | calls only | hit rate 0.4% among 17,000;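 active = compounds whose four printed spots each glow above background more than chance allows, each with a p-value under 7%; compounds were printed on slides so no solution concentration is given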;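 note: about 2 pmol printed per array spot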
Myc binder – binders of human c-Myc | P01106 | small molecule microarray, His-c-Myc binding, anti-His fluorescence | calls only | hit rate 1.5% among 17,000 | AID 624141;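 active = spot fluorescence over background with P-value below 7% in all four replicate spots, showing protein binding; compounds were printed on slides so no solution concentration is given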;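 note: score is binary with 100 for all four spots passing and 0 otherwise; about 2 pmol printed per array spot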
Target sequence (P01106 whole entry, looked up): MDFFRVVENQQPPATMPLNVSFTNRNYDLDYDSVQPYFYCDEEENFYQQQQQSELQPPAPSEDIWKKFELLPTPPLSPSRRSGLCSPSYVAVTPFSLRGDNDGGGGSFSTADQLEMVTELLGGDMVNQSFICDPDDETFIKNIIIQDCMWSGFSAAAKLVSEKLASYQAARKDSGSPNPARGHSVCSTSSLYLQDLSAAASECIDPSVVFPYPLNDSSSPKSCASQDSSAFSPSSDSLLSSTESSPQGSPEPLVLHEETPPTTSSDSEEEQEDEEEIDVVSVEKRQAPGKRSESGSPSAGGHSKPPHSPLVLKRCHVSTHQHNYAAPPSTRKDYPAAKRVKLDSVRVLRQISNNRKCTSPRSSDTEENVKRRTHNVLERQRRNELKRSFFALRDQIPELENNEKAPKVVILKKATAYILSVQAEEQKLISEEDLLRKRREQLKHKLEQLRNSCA
Calls only; i = inactive; · = not tested or not shown; + = active, no number.

SMILES	STAT3 binder	ID4 SMM	p53 mut binder	Myc binder
CC1(C)CC[C@]2(C(=O)O)CC[C@]3(C)C(=CCC4[C@@]5(C)CC[C@H](O[C@@H]6O[C@H](C(=O)O)[C@@H](O[C@@H]7OC[C@@H](O)[C@H](O)[C@H]7O)[C@H](O)[C@H]6O)C(C)(C)C5CC[C@]43C)C2C1 (some centres not stated)	i	·	i	+
C[C@@H]1CN([C@H](C)CO)C(=O)c2cc(NS(C)(=O)=O)ccc2O[C@H]1CN(C)C	i	i	i	i
COC(=O)C1=COC(O[C@@H]2O[C@H](CO)[C@@H](O)[C@H](O)[C@H]2O)[C@@H]2[C@@](C)(O)CC[C@]12O (some centres not stated)	i	i	i	i
C[C@@H]1CN([C@H](C)CO)C(=O)c2cccc(NC(=O)Nc3ccc(C(F)(F)F)cc3)c2O[C@@H]1CN(C)S(=O)(=O)c1cccs1	i	i	i	i
CCO[C@@H]1OC(C(N)=O)=C[C@H](C2CC2)[C@H]1CCCO	i	i	i	i
C[C@@H]1CN([C@@H](C)CO)C(=O)c2cc(NC(=O)C3CC3)ccc2O[C@@H]1CN(C)C(=O)Nc1ccc(F)cc1	i	i	i	i
Cc1nn(C(=O)Cn2nc([N+](=O)[O-])cc2C)c(C)c1Cl	i	i	i	+
C[C@@H]1CCCCO[C@H](CN(C)C)[C@@H](C)CN([C@H](C)CO)C(=O)c2cc(NC(=O)Nc3ccccc3)ccc2O1	i	i	i	i
CNC[C@@H]1Oc2c(NS(=O)(=O)c3cccs3)cccc2C(=O)N([C@H](C)CO)C[C@H]1C	i	i	i	i
C[C@@H]1CN([C@@H](C)CO)C(=O)c2cc(NC(=O)Nc3ccccc3)ccc2O[C@@H]1CN(C)CC1CC1	i	i	i	i
CC(=O)c1cccc(NC(=O)CCCn2cc([N+](=O)[O-])cn2)c1	i	i	i	i
Cc1noc(C)c1NC(=O)N(C)C[C@H]1OCCCC[C@H](C)Oc2ccc(NS(=O)(=O)c3cccs3)cc2C(=O)N([C@@H](C)CO)C[C@H]1C	i	i	i	i
Cc1ccc2c(c1)c(C)c(C)n2CC(O)Cn1nc(C)c(Br)c1C (configuration not stated)	i	i	i	i
CC(C)NC(=O)N(C)C[C@@H]1Oc2ccc(NS(=O)(=O)c3cccs3)cc2CC(=O)N([C@@H](C)CO)C[C@H]1C	i	i	i	i
CNC[C@H]1Oc2c(NC(=O)Nc3cccc4ccccc34)cccc2C(=O)N([C@H](C)CO)C[C@@H]1C	i	i	i	i
COc1ccccc1NC(=O)CC(NC1CCCCC1)C(=O)O (configuration not stated)	i	i	i	i
C[C@@H]1CN([C@H](C)CO)C(=O)c2cccc(NS(=O)(=O)c3cccs3)c2O[C@H]1CN(C)S(=O)(=O)c1ccc(Cl)cc1	i	i	i	i
Cc1c(NC(=S)NCc2ccccn2)c(=O)n(-c2ccccc2)n1C	i	i	i	i
C=C1CC[C@@H]2[C@](C)(CO)[C@H](O)CC[C@@]2(C)[C@@H]1C/C=C1/C(=O)OC[C@H]1O	i	i	i	i
C[C@H]1CCCCO[C@@H](CN(C)C(=O)Nc2ccccc2)[C@@H](C)CN([C@@H](C)CO)C(=O)c2cc(NC(=O)C3CCCCC3)ccc2O1	i	i	i	+
C[C@@H]1CN([C@H](C)CO)C(=O)c2cc(NC(=O)C3CC3)ccc2O[C@@H]1CN(C)Cc1ccncc1	i	i	i	i
C[C@@H]1CCCCO[C@@H](CN(C)Cc2ccncc2)[C@@H](C)CN([C@H](C)CO)C(=O)c2cc(NS(=O)(=O)c3ccccc3)ccc2O1	i	i	i	i
CNC[C@@H]1OCCCC[C@H](C)Oc2ccc(NS(=O)(=O)c3ccccc3)cc2C(=O)N([C@@H](C)CO)C[C@@H]1C	i	i	i	i
COc1ccc(OC(C)C(=O)Nc2cc(OC)cc(OC)c2)cc1 (configuration not stated)	i	i	i	i
CC1CC(=O)C2=C(O1)OC1(C)CCC3(O)C(C)(C)C=CC(=O)C3(C)C1C2 (configuration not stated)	i	i	i	i
COc1cccc(S(=O)(=O)N(C)C[C@@H]2Oc3ncc(-c4ccc(F)cc4)cc3C(=O)N([C@H](C)CO)C[C@@H]2C)c1	i	·	i	i
COc1ccc(NC(=O)Nc2ccc3c(c2)CC(=O)N([C@H](C)CO)C[C@H](C)[C@H](CN(C)C(=O)Nc2ccc4c(c2)OCO4)O3)cc1	i	·	i	i
COC(=O)[C@@]1(Cc2ccccc2CN=[N+]=[N-])N=C(c2ccc(OCCCO)cc2)O[C@H]1c1ccccc1	i	i	i	i
COc1ccc(S(=O)(=O)N(C)C[C@H]2Oc3ccc(NC(=O)CCCN(C)C)cc3C(=O)N([C@H](C)CO)C[C@H]2C)cc1	i	i	i	i
COc1ccc(C(=O)CCC(=O)Nc2ccc(C(=O)O)cc2)cc1OC	i	i	i	i
COc1ccc(CN(C)C[C@H]2Oc3ccc(NS(=O)(=O)c4ccc(OC)cc4)cc3C(=O)N([C@@H](C)CO)C[C@H]2C)cc1	i	i	i	i
C[C@H]1CN([C@@H](C)CO)C(=O)CCCn2cc(nn2)CO[C@H]1CN(C)C(=O)Nc1ccccc1F	i	i	i	i
O=C(c1ccccc1)N1Cc2ccccc2[C@@H]2OC(c3ccc(OCCCO)cc3)=N[C@]2(CCS(=O)(=O)c2ccccc2)C1=O	i	i	i	i
Cc1ccc(S(=O)(=O)Nc2ccc3c(c2)CC(=O)N([C@H](C)CO)C[C@@H](C)[C@@H](CN(C)C(=O)Nc2ccc4c(c2)OCO4)O3)cc1	i	·	i	i
O=C(COc1ccc2ccccc2c1Br)NCc1ccco1	i	i	i	i
NS(=O)(=O)c1ccc(NC(=O)CC2c3ccccc3Oc3ccccc32)cc1	i	i	i	i
Cc1nn(CC(=O)Nc2ccc(C(=O)N(C)C)cc2)c(=O)c2ccccc12	i	i	i	i
C[C@@H]1CN([C@@H](C)CO)C(=O)c2cc(NS(C)(=O)=O)ccc2O[C@@H]1CN(C)C(=O)Nc1ccc2c(c1)OCO2	i	i	i	i
C[C@@H]1CCCCO[C@@H](CN(C)C(=O)Cc2ccccc2)[C@H](C)CN([C@H](C)CO)C(=O)c2cc(NC(=O)Nc3ccc(F)cc3)ccc2O1	i	i	i	i
Cc1ccc(Cl)cc1N(CC(=O)O)S(C)(=O)=O	i	i	i	+
Cc1cccc(NC(=O)CCC(=O)O)c1	i	i	i	+
CNC[C@@H]1Oc2ccc(NC(=O)Nc3ccc4c(c3)OCO4)cc2C(=O)N([C@H](C)CO)C[C@@H]1C	i	i	i	i
C=CCN1C(=O)[C@]2(O[C@H](CCn3cc([C@H](O)c4ccccc4)nn3)[C@@H]([Si](C)(C)c3ccc(OC)cc3)[C@@H]2C)c2cc(N3CCOC3=O)ccc21	i	·	i	i
C[C@H]1CN([C@@H](C)CO)C(=O)Cc2cc(NC(=O)Nc3ccccc3)ccc2O[C@H]1CN(C)CC1CC1	i	i	i	i
Cc1noc(C)c1NC(=O)Nc1ccc2c(c1)C(=O)N([C@@H](C)CO)C[C@@H](C)[C@@H](CN(C)C(=O)Nc1ccccc1)OCCCC[C@H](C)O2	i	·	i	i

4 records drawn at random from the list so far, as already listed:
SMILES	STAT3 binder	ID4 SMM	p53 mut binder	Myc binder
C[C@@H]1CN([C@@H](C)CO)C(=O)c2cc(NS(C)(=O)=O)ccc2O[C@@H]1CN(C)C(=O)Nc1ccc2c(c1)OCO2	i	i	i	i
NS(=O)(=O)c1ccc(NC(=O)CC2c3ccccc3Oc3ccccc32)cc1	i	i	i	i
O=C(c1ccccc1)N1Cc2ccccc2[C@@H]2OC(c3ccc(OCCCO)cc3)=N[C@]2(CCS(=O)(=O)c2ccccc2)C1=O	i	i	i	i
O=C(COc1ccc2ccccc2c1Br)NCc1ccco1	i	i	i	i

Carrying on:
SMILES	STAT3 binder	ID4 SMM	p53 mut binder	Myc binder
C[C@@H]1CCCCO[C@@H](CN(C)Cc2ccc(Cl)c(Cl)c2)[C@@H](C)CN([C@H](C)CO)C(=O)c2cc(NC(=O)c3ccccc3)ccc2O1	i	·	i	i
C[C@@H]1CN([C@H](C)CO)C(=O)Cc2cc(NS(=O)(=O)c3cn(C)cn3)ccc2O[C@@H]1CN(C)C(=O)Nc1ccc(F)cc1	i	i	i	i
C[C@@H]1CCCCO[C@@H](CN(C)C(=O)Nc2ccc(C(F)(F)F)cc2)[C@H](C)CN([C@@H](C)CO)C(=O)c2cc(NC(=O)c3ccncc3)ccc2O1	i	·	i	+
O=C(NCC(O)CO)[C@]1(CCS(=O)(=O)c2ccccc2)N=C(c2ccc(OCCCO)cc2)O[C@@H]1c1ccccc1 (some centres not stated)	i	i	i	i
COc1ccc(CN(C)C[C@@H]2Oc3c(NS(=O)(=O)c4ccc(Cl)cc4)cccc3C(=O)N([C@H](C)CO)C[C@@H]2C)cc1	i	i	i	i
C[C@@H]1CN([C@@H](C)CO)C(=O)c2cc(N(C)C)ccc2O[C@@H](C)CCCCO[C@@H]1CN(C)C	i	i	i	i
COc1ccc(CN(C)C[C@@H]2Oc3c(NC(=O)C4CCCCC4)cccc3C(=O)N([C@@H](C)CO)C[C@H]2C)cc1	i	·	i	i
COc1ccc(C2COc3cc(O)ccc3C2)c(O)c1 (configuration not stated)	i	i	i	i
C[C@@H]1CCCCO[C@H](CN(C)C(=O)Nc2ccccc2)[C@H](C)CN([C@H](C)CO)C(=O)c2cc(N(C)C)ccc2O1	i	i	i	i
Cc1ccc2nc(SCc3nc4ccccc4n3C)[nH]c2c1	i	i	i	i
CC(C)NC(=O)N(C)C[C@@H]1OCCCC[C@@H](C)Oc2ccc(NS(=O)(=O)c3ccccc3)cc2C(=O)N([C@H](C)CO)C[C@@H]1C	i	i	i	i
C[C@H](CO)N1C[C@H](C)[C@@H](CN(C)C(=O)NC2CCCCC2)Oc2c(NS(=O)(=O)c3ccccc3)cccc2C1=O	i	i	i	i
COC(=O)c1ccccc1NC(=O)Cn1c(C)ccc1C	i	i	i	i
CC(C)NC(=O)N(C)C[C@@H]1OCCCC[C@@H](C)Oc2ccc(N(C)C)cc2C(=O)N([C@@H](C)CO)C[C@@H]1C	i	i	i	i
CC(C)NC(=O)N(C)C[C@@H]1OCCCC[C@H](C)Oc2ccc(N(C)C)cc2C(=O)N([C@@H](C)CO)C[C@H]1C	i	i	i	i
COc1cc2ncnc(Nc3cccc(Br)c3)c2cc1OC	i	·	i	i
COc1cccc(OC)c1C(=O)Nc1cccc(C(=O)Nc2ccccc2C(=O)O)c1	i	i	i	i
CC(C)NC(=O)N(C)C[C@H]1OCCCC[C@H](C)Oc2ccc(NC(=O)Cc3ccccc3)cc2C(=O)N([C@@H](C)CO)C[C@@H]1C	i	i	i	i
O=C(CC1C(=O)N(c2ccc(F)cc2)C(=O)N1Cc1ccccn1)Nc1ccccc1 (configuration not stated)	i	i	i	i
CC(C)NC(=O)Nc1ccc2c(c1)C(=O)N([C@@H](C)CO)C[C@@H](C)[C@@H](CN(C)S(=O)(=O)c1cn(C)cn1)OCCCC[C@@H](C)O2	i	i	i	i
CCCCCCCCCCCCCC(=O)N[C@@H](C)[C@H](O)c1ccccc1	i	i	i	i
O=C(COc1cccc(NC(=O)c2ccc(Cl)cc2)c1)c1ccccc1	i	i	i	i
Cc1noc(C)c1S(=O)(=O)Nc1ccc2c(c1)CC(=O)N([C@H](C)CO)C[C@H](C)[C@H](CN(C)Cc1ccncc1)O2	i	i	i	i
C[C@@H]1CN([C@H](C)CO)C(=O)Cc2cc(NC(=O)C3CC3)ccc2O[C@H]1CN(C)Cc1ccc(Cl)c(Cl)c1	i	i	+	+
COc1ccc(NC(=O)N(C)C[C@@H]2OCc3cn(nn3)CCCC(=O)N([C@@H](C)CO)C[C@@H]2C)c(OC)c1	i	·	i	i
COc1ccc(S(=O)(=O)N(C)C[C@H]2Oc3ccc(NC(=O)Cc4ccccc4)cc3C(=O)N([C@H](C)CO)C[C@@H]2C)cc1	i	i	i	i
Cc1noc(C)c1NC(=O)N(C)C[C@H]1Oc2c(NC(=O)Nc3ccc(C(F)(F)F)cc3)cccc2C(=O)N([C@@H](C)CO)C[C@H]1C	i	i	i	i
NC(=O)C1=C[C@@H](c2csc3ccccc23)C[C@@H](OCCCCO)O1	i	i	i	i
C[C@@H]1CN([C@@H](C)CO)C(=O)Cc2cc(N(C)C)ccc2O[C@@H]1CN(C)Cc1ccc(C(F)(F)F)cc1	i	i	i	i
CC(=O)N[C@H]1[C@H](O[C@@H]2[C@@H](O)[C@H](C)O[C@@H](Oc3ccc4c(=O)c(-c5ccc(O)cc5)coc4c3)[C@@H]2O)O[C@H](CO)[C@@H](O[C@@H]2O[C@@H](C)[C@H](O)[C@@H](O)[C@H]2O)[C@@H]1O	i	·	i	i
Cc1noc(C)c1NC(=O)Nc1ccc2c(c1)CC(=O)N([C@@H](C)CO)C[C@@H](C)[C@@H](CN(C)C(=O)Nc1cccc3ccccc13)O2	i	i	i	i
CCCn1c2ccccc2c2nnc(Sc3ccc4nsnc4c3[N+](=O)[O-])nc21	i	i	i	i
O=C(O)/C=C/c1ccc(Cn2ccnc2)cc1	i	i	i	i

Exported field by field: part of the list above
> O=C(COc1cccc(NC(=O)c2ccc(Cl)cc2)c1)c1ccccc1
  STAT3 binder: i; ID4 SMM: i; p53 mut binder: i; Myc binder: i

> Cc1noc(C)c1S(=O)(=O)Nc1ccc2c(c1)CC(=O)N([C@H](C)CO)C[C@H](C)[C@H](CN(C)Cc1ccncc1)O2
  STAT3 binder: i; ID4 SMM: i; p53 mut binder: i; Myc binder: i
